Screens (PubChem)
GALR2 ag = agonists of human galanin receptor 2 (GALR2). O43603. hit rate 0.48% among 140,000. activation, %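 (tested at 5 µM)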. GALR2-expressing cells, agonist activation read-out;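 active means above mean plus 3 SD of all compounds, about 5% in these data, not always enough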;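 further: 0% = vehicle buffer wells and 100% = reference agonist at full effect; tested in CHO reporter cells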
Target sequence (O43603 whole entry, looked up): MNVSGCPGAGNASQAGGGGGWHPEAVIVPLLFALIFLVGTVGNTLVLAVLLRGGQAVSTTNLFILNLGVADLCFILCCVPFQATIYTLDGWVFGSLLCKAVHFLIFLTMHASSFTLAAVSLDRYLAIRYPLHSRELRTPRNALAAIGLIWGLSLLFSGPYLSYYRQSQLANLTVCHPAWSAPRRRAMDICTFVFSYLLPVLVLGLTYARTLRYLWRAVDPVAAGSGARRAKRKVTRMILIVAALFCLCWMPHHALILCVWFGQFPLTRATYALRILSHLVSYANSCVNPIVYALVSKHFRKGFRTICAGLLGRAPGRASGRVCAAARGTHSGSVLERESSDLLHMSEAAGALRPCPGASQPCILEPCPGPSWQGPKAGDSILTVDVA
Insulin prom inh = TRM-6 insulin promoter activity inhibition; TRM-6 cells (human fetal islet line), insulin promoter-eGFP reporter, imaging; reporter expression induced with tamoxifen; inhibition, % at 2 µM; hit rate 0.9% among 130,000; AID 1273;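 active means inhibition above the mean plus 3 SD, with well images judged a real hit on visual review, cut at about 60% in these data, passing the limit was not always enough; inconclusive means inhibition over the cutoff but images rejected on review; inactive means inhibition not above the cutoff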
RGS16-Gao = regulators of human RGS16-Galphao interaction. O15492+P09471. bead-based flow cytometry RGS16-Galphao binding, fluorescence; actives lie on both sides. binding response (% of control), % at 10 µM. hit rate 0.38% among 220,000;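 active means below 25% or above 175%, edge rows of some plates excepted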;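 further: Galphao activated by GDP with aluminum fluoride before binding; 100% = wells without compound and 0% = beads without RGS; some results beyond the cut were filed as inactive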
Target sequence (O15492 whole entry, looked up): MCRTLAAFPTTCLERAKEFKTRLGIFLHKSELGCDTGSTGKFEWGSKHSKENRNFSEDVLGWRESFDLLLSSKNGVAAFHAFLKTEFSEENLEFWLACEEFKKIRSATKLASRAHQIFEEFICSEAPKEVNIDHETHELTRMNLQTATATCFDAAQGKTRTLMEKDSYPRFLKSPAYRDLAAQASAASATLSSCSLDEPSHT
Target sequence (P09471 whole entry, looked up): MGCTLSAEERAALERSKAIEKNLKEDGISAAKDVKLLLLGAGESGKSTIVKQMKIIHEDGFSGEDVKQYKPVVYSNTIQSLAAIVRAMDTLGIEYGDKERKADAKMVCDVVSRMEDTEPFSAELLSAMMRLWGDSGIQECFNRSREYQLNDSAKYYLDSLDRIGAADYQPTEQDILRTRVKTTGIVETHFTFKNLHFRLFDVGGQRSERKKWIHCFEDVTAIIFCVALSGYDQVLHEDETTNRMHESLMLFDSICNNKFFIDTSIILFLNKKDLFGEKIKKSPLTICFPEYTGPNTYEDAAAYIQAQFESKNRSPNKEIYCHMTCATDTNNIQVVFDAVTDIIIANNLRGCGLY
HSV augment = HSV replication enhancement; HSV replication augmentation in cells, fold increase; maximum fold increase; hit rate 0.005% among 220,000;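 active means peak rise of 1.5-fold or more in the series; inconclusive means self-fluorescent or not available for retest; tested in PC3 cells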;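 further: first round at 10 µM; read as green reporter fluorescence; hits show the peak of a series up to 25 µM; 1 = signal of infected wells without compound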
PKD1 kinase inh = blocks activity of human protein kinase D1. inhibition, %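 (about 10 µM by stock and volumes)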. PKD1 kinase fluorescence polarization assay. AID 797. Q15139. hit rate 0.056% among 200,000;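 active means inhibition of 50% or more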;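 further: controls were vehicle for no effect and a reference inhibitor for full effect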
Insulin prom inh cell count = second read-out of Insulin prom inh, no call of its own (marks repeat the call); normalized cell count, %; measured here: cell count, toxicity; reference of the scale not given here;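 cells exposed to compound for 48 h; stained nuclei by imaging scaled within each plate; lower means fewer cells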
HSV augment primary fold = further read-out of HSV augment, marked with its call; fold increase; compound at 10 µM; measured here: primary screen fold increase 10 uM; tested in PC3 cells;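 GFP signal in the first replicate; 1 = infected wells without compound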
Numbers without * were called inactive; i = inactive; ? = inconclusive; . = not tested or not shown.

SMILES | GALR2 ag | Insulin prom inh | Insulin prom inh cell count | RGS16-Gao | HSV augment | HSV augment primary fold | PKD1 kinase inh
CCN(CC)C(=O)n1cnc(-c2ccccc2)c1-c1ccccc1 | 0.9 | -64.3 | 102.3 | 109.0 | i | 0.95 | -5.9
CCSCCc1nnc(NC(=O)Nc2cccc(C(F)(F)F)c2)s1 | -1.0 | . | . | 101.2 | i | 0.68 | 1.2
O=C(O)c1ccc(-n2nnnc2Oc2ccccc2C(=O)N2CCOCC2)cc1 | -1.1 | 35.1 | 95.5 | 101.2 | i | 1.02 | -1.6
O=C(Cn1cc2c(n1)CCCCC2)Nc1ccccc1Br | . | . | . | 14.0* | i | 0.97 | .
CC(C(=O)OCc1nnc(-c2ccccc2)o1)N1C(=O)C2CCCCC2C1=O (stereo unspecified) | . | -14.3 | 50.2 | 84.4 | i | 1.16 | -8.2
COc1cccc(C(=O)Nc2cccc(-c3ccc4nncn4n3)c2)c1OC | . | 8.3 | 101.2 | 100.2 | i | 0.84 | -1.6
CCCCN(C(=O)c1ccc2c(c1)OCO2)c1ccccc1 | . | . | . | 99.7 | i | 1.05 | -5.3
CC(c1ccco1)N(C(=O)c1cccs1)c1ccccn1 (stereo unspecified) | -0.4 | . | . | 103.0 | i | 0.84 | -12.3
Cc1ccc(C(=O)OC2CCN(c3ccc([N+](=O)[O-])cc3)CC2)cc1 | -1.0 | -45.5 | 186.7 | 101.5 | i | 1.06 | -2.8
CCN(C(=O)COC(=O)CNC(=O)c1ccc(C)c(C)c1)C1CCS(=O)(=O)C1 (stereo unspecified) | -1.1 | 0.0 | 125.2 | 110.1 | i | 0.96 | -6.2
c1ccc(-c2ncc(CN3CCN(c4ccccn4)CC3)[nH]2)cc1 | . | . | . | 100.2 | i | 1.04 | .
COC(=O)c1cnn2c(C)c(Cc3cccc(F)c3)c(C)nc12 | -1.3 | . | . | 95.3 | i | 0.88 | 2.3
Cc1ccc(NC(=O)N2CCCC2C(=O)NCCc2ccccc2)cc1 (stereo unspecified) | -1.4 | . | . | 103.1 | i | 0.82 | -1.8
O=C(Nc1ccc(N2CCOCC2)cc1)c1cccc(S(=O)(=O)N2CCCCC2)c1 | 0.0 | -8.1 | 74.2 | 101.2 | . | . | -3.3
Cc1c(Cl)cccc1NC(=O)CC1SCCNC1=O (stereo unspecified) | -1.6 | . | . | 100.7 | i | 1.06 | -7.0

Quoted from the listing (nine entries):
SMILES | GALR2 ag | Insulin prom inh | Insulin prom inh cell count | RGS16-Gao | HSV augment | HSV augment primary fold | PKD1 kinase inh
CCCCN(C(=O)c1ccc2c(c1)OCO2)c1ccccc1 | . | . | . | 99.7 | i | 1.05 | -5.3
CC(c1ccco1)N(C(=O)c1cccs1)c1ccccn1 (stereo unspecified) | -0.4 | . | . | 103.0 | i | 0.84 | -12.3
Cc1ccc(C(=O)OC2CCN(c3ccc([N+](=O)[O-])cc3)CC2)cc1 | -1.0 | -45.5 | 186.7 | 101.5 | i | 1.06 | -2.8
CCN(C(=O)COC(=O)CNC(=O)c1ccc(C)c(C)c1)C1CCS(=O)(=O)C1 (stereo unspecified) | -1.1 | 0.0 | 125.2 | 110.1 | i | 0.96 | -6.2
c1ccc(-c2ncc(CN3CCN(c4ccccn4)CC3)[nH]2)cc1 | . | . | . | 100.2 | i | 1.04 | .
COC(=O)c1cnn2c(C)c(Cc3cccc(F)c3)c(C)nc12 | -1.3 | . | . | 95.3 | i | 0.88 | 2.3
Cc1ccc(NC(=O)N2CCCC2C(=O)NCCc2ccccc2)cc1 (stereo unspecified) | -1.4 | . | . | 103.1 | i | 0.82 | -1.8
O=C(Nc1ccc(N2CCOCC2)cc1)c1cccc(S(=O)(=O)N2CCCCC2)c1 | 0.0 | -8.1 | 74.2 | 101.2 | . | . | -3.3
Cc1c(Cl)cccc1NC(=O)CC1SCCNC1=O (stereo unspecified) | -1.6 | . | . | 100.7 | i | 1.06 | -7.0

The listing continues.
SMILES | GALR2 ag | Insulin prom inh | Insulin prom inh cell count | RGS16-Gao | HSV augment | HSV augment primary fold | PKD1 kinase inh
CNC(=O)c1ccc(-n2nc(C)cc2-c2ccccc2)cc1 | -1.8 | 6.0 | 177.1 | 78.8 | i | 1.03 | -11.4
CCOc1cccc(CNCCSc2nnnn2C)c1 | . | . | . | 25.4 | i | 1.02 | 10.7
c1ccc(CSC2=NNC(c3ccccn3)S2)cc1 (stereo unspecified) | . | . | . | 98.5 | i | 0.71 | .
COc1ccccc1-c1cc(C(=O)Nc2cccnc2)no1 | 0.9 | . | . | 99.4 | . | . | 6.7
CCCC(=N)C1=C(O)CC(CC(C)SCC)CC1=O (stereo unspecified) | -1.7 | 7.1 | 107.5 | 92.1 | i | 0.97 | -3.8
O=[N+]([O-])c1cc(-c2ncccn2)cs1 | 0.0 | -33.3 | 138.9 | 99.3 | i | 0.87 | -13.0
CCCC(=O)Nc1cccc(NC(=O)c2ccc(C)c([N+](=O)[O-])c2)c1 | -2.1 | 37.9 | 119.5 | 103.3 | i | 0.98 | 1.6
Fc1ccc(N2CCN(/C=C/c3nnnn3-c3ccccc3)CC2)cc1 | -0.8 | 31.2 | 62.7 | 96.0 | i | 0.88 | 3.9
O=C(Nc1ccccc1C(F)(F)F)c1ncn[nH]1 | . | . | . | 95.9 | i | 0.86 | .
CCOC(=O)Cn1c2ccc(OC)cc2c2nc3ccccc3nc21 | -2.0 | 54.5 | 65.5 | 156.7 | i | 1.03 | 14.0
COCCSc1ccccc1C(=O)Nc1ccc([N+](=O)[O-])cc1OC | . | . | . | 101.0 | i | 0.85 | -1.2
CC(=O)Nc1ccc(NC(=O)Nc2ccc(C)cc2C)cc1 | . | . | . | 97.6 | i | 0.97 | -11.6
OCCC#Cc1ccc(CN2CCN(Cc3ccsc3)C(CCO)C2)cc1 (stereo unspecified) | . | . | . | 94.3 | i | 1.13 | -10.8
COc1cc2cc(C(c3nnnn3Cc3ccc(F)cc3)N3CCCCCC3)c(=O)[nH]c2cc1OC (stereo unspecified) | -2.8 | -25.8 | 122.4 | 107.5 | i | 1.05 | -7.3
S=C(Nc1ccccc1Cl)NC1CCC(NC(=S)Nc2ccccc2Cl)CC1 (stereo unspecified) | . | . | . | 99.1 | i | 0.85 | -3.1
CCC(=O)Nc1cccc(NC(=S)NC(=O)c2ccc(Cl)cc2Cl)c1 | 1.4 | -58.6 | 88.2 | 100.1 | i | 1.12 | -4.7
CCCn1nc(-c2nnc(-c3ccc(C)c(C)c3)o2)c2ccccc2c1=O | -0.1 | -15.4 | 141.9 | 94.2 | i | 0.76 | -9.4
CCCCc1nc2sc3c(SCCN(C)C)ncnc3c2c2c1CCC2 | . | . | . | 94.0 | i | 0.79 | .
CCCCC1(C)OC(=O)C(=Cc2ccc(N(C)C)cc2)C(=O)O1 (stereo unspecified) | -1.0 | 69.2 | 135.6 | 108.0 | i | 0.93 | -0.5
O=c1/c(=C/c2ccc(CNS(=O)(=O)c3ccccc3)o2)sc2n1CCN=2 | -0.5 | 23.1 | 119.3 | 93.3 | i | 1.03 | -6.3
CN(C)C(=O)N1CCN(C(=O)c2ccccc2Sc2ccccc2C#N)CC1 | -3.1 | 51.5 | 76.1 | 103.6 | i | 0.93 | -9.3
CCOc1cc(/C=N/NC(N)=O)cc(Br)c1OCC(=O)Nc1ccccc1C | 0.1 | 31.4 | 85.3 | 105.1 | i | 0.973 | -1.3
COC(=O)CCCCC(=O)C1C(=O)CC(C)(C)C(C(=O)OC)C1=O (stereo unspecified) | -1.0 | -10.0 | 175.3 | 119.8 | i | 0.91 | -8.3
O=C(NCC1COc2ccccc2O1)c1c[nH]c2ccc(S(=O)(=O)N3CCOCC3)cc2c1=O (stereo unspecified) | -0.3 | . | . | 84.7 | i | 1.02 | -14.4
CCN(CC)CCNC1=NCCn2c1cc1cc(OC)ccc12 | -0.4 | -48.1 | 76.0 | 105.6 | i | 0.81 | 1.9
OCCNc1nc(Nc2ccccc2)nc(Nc2ccccc2)n1 | -1.8 | 7.1 | 117.8 | 101.6 | i | 0.83 | 3.4
O=C(Cn1nnc(-c2ccccc2)n1)N/N=C/c1ccc(-c2ccc(Cl)cc2)o1 | -0.9 | 55.9 | 157.9 | 102.8 | i | 0.89 | 7.0
COc1ccc(-c2csc3ncn(-c4ccc(C)cc4)c(=O)c23)cc1OC | . | . | . | 45.2 | i | 0.88 | -8.8
COc1ccc2c(c1)CCC(C)N2S(=O)(=O)c1ccc(C2CNC(=O)C2)cc1 (stereo unspecified) | -2.8 | -67.8 | 76.6 | 99.8 | i | 0.83 | -9.4
Cc1ccnc(SCc2cn3c(C)cccc3n2)n1 | . | . | . | 120.2 | i | 0.93 | -0.1
COc1ccc(NC(=O)/C=C/c2ccc(C)o2)cc1S(=O)(=O)N1CCOCC1 | -0.7 | 1.6 | 125.2 | 100.2 | i | 1.11 | -0.2
COc1ccc2cc(/C=N/NC(=O)c3c(Cl)cnn3C)c(Cl)nc2c1 | -0.3 | -25.0 | 144.5 | 40.5 | i | 1.12 | 8.1
C=CCOc1ccc(/C=N/O)cc1Cl | -0.7 | -28.2 | 98.3 | 106.8 | i | 0.93 | -8.9
N/C(COc1ccc(Cl)cc1)=N\NS(=O)(=O)c1ccccc1 | -0.1 | -83.3 | 135.1 | 156.5 | i | 0.96 | -8.6
Cc1ccc(S(=O)(=O)ON2C(=O)c3cccc4cccc(c34)C2=O)cc1 | -0.2 | -7.4 | 114.0 | 109.4 | i | 0.94 | -6.9
CN(C)CCNC(=O)c1c(O)c2c([nH]c1=O)CCCC2 | 0.2 | . | . | 101.4 | i | 1.03 | -0.2
CCOc1ccc(NC(=O)CCNS(=O)(=O)c2cccs2)cc1 | -2.8 | 15.4 | 86.6 | 101.0 | i | 0.93 | -1.8
CC1NC(=O)NC1CCCCCC(=O)Nc1ccc(F)cc1 (stereo unspecified) | . | 25.0 | 94.7 | 99.7 | i | 0.94 | -4.7
COCCOc1nc2c(c(=O)n(C)c(=O)n2C)n1CCc1ccccc1 | -3.3 | . | . | 108.4 | i | 0.92 | -3.2
Nc1nc(NCc2ccccc2)nc(Nc2ccc(F)cc2)c1[N+](=O)[O-] | -0.2 | 2.3 | 92.7 | 103.8 | i | 0.88 | -6.9
Cc1ccnn1CC(=O)N/N=C/c1cn[nH]c1-c1ccccc1 | . | . | . | 107.4 | i | 1.13 | .
Cc1ccc(NC(=O)CN2CC(C)SC2=NC2CCCCC2)cc1 (stereo unspecified) | 1.3 | -2.5 | 102.6 | 105.5 | i | 0.84 | -8.2
Cc1ccc(-c2ccc(/C=N/N3C(=O)C4C5C=CC(C6CC56)C4C3=O)o2)c([N+](=O)[O-])c1 (stereo unspecified) | -1.4 | -35.1 | 31.1 | 91.5 | i | 1 | 8.3
CCOC(=O)CSc1cc(C(F)(F)F)nc(-c2ccccn2)n1 | -3.0 | 0.0 | 98.6 | 98.2 | i | 0.96 | 3.8
COc1cc(CCC(=O)OCC(=O)Nc2cccc(S(=O)(=O)N(C)C)c2)cc(OC)c1OC | -0.8 | 25.0 | 94.6 | 99.4 | i | 0.97 | 7.2
Cc1oc(C(C)(C)C)cc1C(=O)N1CCN(C(c2ccccc2)c2ccccc2)CC1 | . | . | . | 107.0 | i | 1.06 | .
COc1ccc2nc(SCC(C)=O)c(C#N)cc2c1 | 0.4 | -159.4 | 131.1 | 64.0 | ? | . | -4.4
COCCN(C(=O)Cc1cccs1)c1nnc(-c2cccnc2)s1 | -0.9 | 5.6 | 56.2 | 93.1 | i | 0.99 | -3.9
O=C(O)CCCC(=O)N1CCN(c2cccc(Cl)c2)CC1 | -0.9 | 3.9 | 114.8 | 83.3 | i | 0.94 | -5.1
Cc1ccc(NNC(=O)c2cc(C(C)(C)C)nn2Cc2ccccc2)cc1 | . | . | . | 98.2 | i | 1.08 | .
C/C(Cc1ccccc1)=N\NC(=O)CNC(=O)Cc1ccccc1 | . | . | . | 85.5 | i | 0.93 | .
COC(=O)c1sccc1NC(=O)CSCCc1ccccn1 | . | 23.5 | 132.2 | 100.5 | i | 0.87 | -1.2
COc1ccc(C2CC(c3ccccc3)=NN2C(=O)COC(=O)c2nc3nc(C)cc(C)n3n2)cc1 (stereo unspecified) | . | -13.3 | 74.2 | 100.1 | i | 0.85 | -3.4
CC1(C)C(CSc2nc3ccccc3[nH]2)C1(Cl)Cl (stereo unspecified) | . | . | . | 97.2 | i | 0.95 | 9.2
COc1ccc(-c2cc3nc(C4CCN(C(=O)OC(C)(C)C)CC4)c(C(=O)O)cn3n2)cc1 | -1.0 | -94.4 | 182.2 | 114.5 | i | 1 | -6.9
